Bioassay records (PubChem)
ID4 SMM: binds human ID4 protein on microarray; 1.2% of 31,000 active; AID 624137; P47928; small molecule microarray, Flag-ID4 binding, fluorescence F/B; calls only;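 active = spot signal over background at p below 0.07 in all four prints; compounds were printed on slides so no solution concentration is given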;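 note: a binder raises fluorescence above local background on the spot; about 2 pmol printed per array spot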
Target sequence (P47928 whole entry, looked up): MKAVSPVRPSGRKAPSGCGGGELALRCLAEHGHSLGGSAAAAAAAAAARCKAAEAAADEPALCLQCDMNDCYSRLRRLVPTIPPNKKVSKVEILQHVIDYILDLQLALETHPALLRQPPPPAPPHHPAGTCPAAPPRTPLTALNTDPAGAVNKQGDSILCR
Calls only; i = inactive; + = active, no number.

SMILES	ID4 SMM
O=C(O)CNC(=O)C1COc2ccccc2O1 (stereo not given)	i
O=C(C[C@H]1C=C[C@H](NC(=O)C2CCC2)[C@H](CO)O1)NCc1ccccc1Cl	i
CCC(=O)N(C)C[C@@H]1Oc2ncc(/C=C/c3ccccc3)cc2C(=O)N([C@@H](C)CO)C[C@H]1C	i
Cc1nn(-c2ccccc2)nc1-c1nnc(-c2ccc(Cl)c(Cl)c2)o1	i
Cc1ccccc1-c1cnc2c(c1)C(=O)N([C@@H](C)CO)C[C@H](C)[C@H](CN(C)C(=O)CC1CC1)O2	i
CO[C@H](CN(C)C(=O)c1cnccn1)[C@@H](C)CN([C@H](C)CO)S(=O)(=O)c1ccc(F)cc1	i
COc1ccc(/C=C2\C(=O)N(c3ccc(Cl)cc3)C(c3ccc(F)cc3)S2(=O)=O)c(OC)c1 (stereo not given)	i
CCOC(=O)C1=C(Cn2ccc(C(F)(F)F)n2)NC(=O)NC1c1cc(C)ccc1C (stereo not given)	i
Cc1ccc(S(=O)(=O)N(C)C[C@@H]2Oc3cc(C#CC4CCCC4)ccc3S(=O)(=O)N([C@H](C)CO)C[C@H]2C)cc1	i
COc1ccccc1CNC(=O)C[C@@H]1C[C@H]2c3cc(NC(=O)Nc4ccccc4F)ccc3O[C@H]2[C@H](CO)O1	i
CC(C)CC#Cc1cnc2c(c1)C(=O)N([C@@H](C)CO)C[C@@H](C)[C@H](CN(C)C(=O)c1cccc(F)c1)O2	i
C[C@H](CO)N1C[C@H](C)[C@@H](CN(C)Cc2cccnc2)Oc2ncc(C#CCc3ccccc3)cc2C1=O	i
COc1ccc(NC(=O)c2ccc(OC(C)C(=O)Nc3ccccc3C(F)(F)F)cc2)cc1Cl (stereo not given)	i
CC(=O)c1cccc(NC(=O)NCc2ccco2)c1	i
CCC(Sc1nnnn1-c1ccccc1)C(=O)Nc1cccc([N+](=O)[O-])c1 (stereo not given)	i
O=C(c1cc2cc(Br)ccc2oc1=O)N1CCN(CCN2C(=O)c3cccc4cccc(c34)C2=O)CC1	i
C[C@@H]1CN([C@@H](C)CO)C(=O)c2cc(C#Cc3cccc(F)c3)cnc2O[C@@H]1CN(C)Cc1ccccn1	i
COc1cccc(S(=O)(=O)N(C)C[C@H]2OCc3ccccc3-c3ccccc3C(=O)N([C@@H](C)CO)C[C@@H]2C)c1	i
O=C(Nc1ccc(F)cc1)C1CC(=O)n2cnnc2N1 (stereo not given)	+
C[C@H]1CN([C@@H](C)CO)C(=O)c2ccccc2-c2ccccc2CO[C@H]1CN(C)Cc1cccc(F)c1	i
CCc1ccc(OCC(=O)Nc2ccc(C)cc2[N+](=O)[O-])cc1	i
Cn1c(SCC(=O)Nc2c(Cl)cc(Cl)cc2Cl)nnc1-c1ccc(Cl)cc1	i
O=C(NCCCN1CCCC1=O)Nc1ccc([N+](=O)[O-])cc1	i
C[C@H]1CN([C@@H](C)CO)C(=O)c2cc(C#Cc3cccnc3)cnc2O[C@@H]1CN(C)Cc1ccccc1	i
COc1cccc(C#Cc2cnc3c(c2)C(=O)N([C@H](C)CO)C[C@H](C)[C@H](CN(C)C(=O)C2CCOCC2)O3)c1	i
COc1ccc(-c2cnc3c(c2)C(=O)N([C@@H](C)CO)C[C@@H](C)[C@H](CN(C)C(=O)NC2CCCC2)O3)cc1	i
O=C(Nc1ccc2c(c1)[C@@H]1C[C@H](CC(=O)N3CCCCC3)O[C@H](CO)[C@@H]1O2)C1CCC1	i
O=C1CC(SCCc2nc3ccccc3[nH]2)C(=O)N1c1cccc(F)c1 (stereo not given)	i
CN(C)c1ccc2c(c1)[C@H]1C[C@@H](CC(=O)NCc3ccccc3)O[C@@H](CO)[C@H]1O2	i
O=C(CSc1ccc(Cl)cc1)Nc1cccc(-c2nnc(-c3ccco3)o2)c1	i
C[C@@H]1CN([C@H](C)CO)C(=O)c2cc(N(C)C)ccc2O[C@@H]1CN(C)Cc1ccc(C(F)(F)F)cc1	i
O=C(NC(=S)NCc1cccnc1)c1ccc(-c2cccc([N+](=O)[O-])c2)o1	i
CCn1c(SCC(=O)Nc2cccc(Cl)c2C)nnc1-c1ccncc1	i
CNS(=O)(=O)c1cc(-c2nnc(Nc3ccc(C(=O)N(C)C)cc3)c3ccccc23)ccc1C	i
C[C@H]1CN([C@@H](C)CO)C(=O)c2cc(C#CCN(C)C)cnc2O[C@@H]1CN(C)Cc1ccc(F)cc1	i
O=C(O)C[C@H]1C[C@@H]2c3cc(NC(=O)Nc4ccccc4F)ccc3O[C@@H]2[C@@H](CO)O1	i
CCC(Sc1nnnn1-c1ccccc1)C(=O)Nc1ccc([N+](=O)[O-])cc1 (stereo not given)	i
C[C@@H]1CN([C@@H](C)CO)C(=O)c2cc(-c3ccc(F)cc3)cnc2O[C@@H]1CN(C)Cc1ccc(F)cc1	i
COc1cccc(NC(=O)CSc2nnc(-c3ccccc3)n2-c2ccc(Cl)cc2)c1	i
CCn1c(SCC(=O)Nc2ccc(F)c(Cl)c2)nnc1-c1ccncc1	i
COC(=O)c1ccccc1NC(=O)Cn1nc(C)c([N+](=O)[O-])c1C	i
COC(=O)COc1ccc(NC(=O)c2ccc([N+](=O)[O-])c(C)c2)cc1	i
Cc1ccccc1-c1cnc2c(c1)C(=O)N([C@H](C)CO)C[C@@H](C)[C@H](CN(C)C(=O)CN(C)C)O2	i
COc1ccc(NC(=O)CSc2ccccn2)c([N+](=O)[O-])c1	i
CCNC(=O)C[C@H]1CC[C@@H](NC(=O)C2CC2)[C@@H](CO)O1	i
CC(=O)c1cccc(NC(=O)CN(Cc2ccc(Cl)cc2)S(C)(=O)=O)c1	i
CC(C)C#Cc1cnc2c(c1)C(=O)N([C@H](C)CO)C[C@H](C)[C@H](CN(C)C(=O)c1ccccc1)O2	i
CC(C)CC#Cc1ccc2c(c1)O[C@@H](CN(C)CC1CC1)[C@@H](C)CN([C@@H](C)CO)S2(=O)=O	i
Cn1c(SCC(=O)Nc2ccc(Br)cc2)nnc1-c1cccnc1	i
CC(=O)N(C)C[C@@H]1Oc2ncc(-c3ccc(C)cc3)cc2C(=O)N([C@H](C)CO)C[C@H]1C	i

Further compounds.
SMILES	ID4 SMM
C[C@H]1CN([C@@H](C)CO)C(=O)c2cc(C3=CCCCC3)cnc2O[C@H]1CN(C)C(=O)Cc1ccccc1	i
O=C(CSc1nc2ccccc2s1)Nc1cccc(Cl)c1Cl	i
COCCCNc1ncnc(N)c1[N+](=O)[O-]	i
O=C(C[C@@H]1CC[C@@H](NC(=O)C2CCC2)[C@@H](CO)O1)NC1CCCCC1	i
COC(=O)CNC(=O)c1cc(-c2ccncc2)nc2c(C)c(Cl)ccc12	i
C/C=C/c1cnc2c(c1)C(=O)N([C@H](C)CO)C[C@@H](C)[C@H](CN(C)C(=O)Cc1ccccc1)O2	i
C[C@@H]1CN([C@H](C)CO)C(=O)c2cc(-c3ccccc3F)cnc2O[C@H]1CN(C)Cc1ccccc1	i
CC(C)(C)c1cn2c3ccccc3nc2n1CCNC1CCCCC1	i
O=C(CSc1n[nH]c(-c2ccncc2)n1)N1c2ccccc2Sc2ccccc21	i
S=C(Nc1ccc(Cl)cc1)N1CCN=C1Nc1ccc(Cl)cc1	i

By substructure: the compounds so far with an aryl thioether with sulfur outside any ring.
SMILES	ID4 SMM
CCC(Sc1nnnn1-c1ccccc1)C(=O)Nc1cccc([N+](=O)[O-])c1 (stereo not given)	i
Cn1c(SCC(=O)Nc2c(Cl)cc(Cl)cc2Cl)nnc1-c1ccc(Cl)cc1	i
O=C(CSc1ccc(Cl)cc1)Nc1cccc(-c2nnc(-c3ccco3)o2)c1	i
CCn1c(SCC(=O)Nc2cccc(Cl)c2C)nnc1-c1ccncc1	i
CCC(Sc1nnnn1-c1ccccc1)C(=O)Nc1ccc([N+](=O)[O-])cc1 (stereo not given)	i
COc1cccc(NC(=O)CSc2nnc(-c3ccccc3)n2-c2ccc(Cl)cc2)c1	i
CCn1c(SCC(=O)Nc2ccc(F)c(Cl)c2)nnc1-c1ccncc1	i
COc1ccc(NC(=O)CSc2ccccn2)c([N+](=O)[O-])c1	i
Cn1c(SCC(=O)Nc2ccc(Br)cc2)nnc1-c1cccnc1	i
O=C(CSc1nc2ccccc2s1)Nc1cccc(Cl)c1Cl	i
O=C(CSc1n[nH]c(-c2ccncc2)n1)N1c2ccccc2Sc2ccccc21	i

Further records follow:
SMILES	ID4 SMM
O=C(N[C@@H]1CC[C@H](CC(=O)N2CCOCC2)O[C@H]1CO)c1cccc(F)c1	i
Cc1ccc(OC(=O)N(C)C[C@@H]2OCc3ccccc3-c3ccccc3C(=O)N([C@@H](C)CO)C[C@@H]2C)cc1	i
COc1ccc(C#Cc2ccc3c(c2)O[C@@H](CN(C)S(=O)(=O)c2ccccc2F)[C@@H](C)CN([C@@H](C)CO)S3(=O)=O)cc1	i
CC(=O)N(C)C[C@@H]1Oc2ncc(-c3ccccc3C)cc2C(=O)N([C@H](C)CO)C[C@H]1C	i
O=C(Oc1ccccc1N1CCOCC1)c1cccnc1Sc1ccc(Cl)cc1	i
CN(C)CC(=O)N1[C@H](CO)[C@H](c2ccc(-c3ccccc3F)cc2)[C@@H]1C#N	i
CC1=C2C[C@@]3(C)[C@@H](CCC[C@@H]3C)C[C@@]2(O)OC1=O	i
N#Cc1c(C(F)(F)F)cc(-c2cccs2)nc1SCC(=O)Nc1ccccc1C(F)(F)F	i
C[C@H](CO)N1C[C@H](C)[C@H](CN(C)C(=O)C2CCOCC2)Oc2cc(C3=CCCCC3)ccc2S1(=O)=O	i
O=C(CSc1ccccn1)Nc1ccc(Cl)cc1	i
COc1c(S(=O)(=O)NCCN2CCOCC2)ccc(Cl)c1Cl	i
Cn1c(SCC(=O)Nc2ccc(I)cc2)nnc1-c1ccc(Cl)cc1	i
C[C@H]1CN([C@@H](C)CO)C(=O)c2cc(-c3cccc(C(=O)N(C)C)c3)cnc2O[C@@H]1CN(C)C(=O)Cc1ccccn1	i
COC(=O)CSc1nc(N(C)C)nc(N(C)C)n1	i
CC(C)NC(=O)N(C)C[C@H]1Oc2cc(C#Cc3ccccn3)ccc2S(=O)(=O)N([C@H](C)CO)C[C@@H]1C	i
C[C@H](CO)N1C[C@H](C)[C@@H](CN(C)Cc2ccc(F)cc2)OCc2ccccc2-c2ccccc2C1=O	i
C[C@@H]1CN([C@@H](C)CO)C(=O)c2cc(C#Cc3ccccn3)cnc2O[C@@H]1CN(C)CC1CCCC1	i
C[C@H](CO)N1C[C@H](C)[C@H](CN(C)C)Oc2ncc(C#CC3CC3)cc2C1=O	i
CCOC(=O)c1c(NC(=O)CSc2ncn[nH]2)sc2c1CCC2	i
S=c1[nH]nc(-c2cccnc2)n1C1CCCCC1	i
C[C@H]1CN([C@@H](C)CO)C(=O)c2cc(C#Cc3ccccc3F)cnc2O[C@H]1CN(C)C	i
C[C@H](CO)N1C[C@H](C)[C@H](CN(C)CC2CCCC2)Oc2ncc(C#Cc3cccc(F)c3)cc2C1=O	i
C[C@@H]1CN([C@H](C)CO)C(=O)c2cc(-c3ccccc3F)cnc2O[C@@H]1CN(C)Cc1ccccc1F	i
COC(=O)c1nnn(CC(=O)N(Cc2ccccc2)c2ccc(Br)cc2)c1C(=O)OC	i
C[C@@H]1CN([C@H](C)CO)S(=O)(=O)c2ccc(Br)cc2O[C@@H]1CN(C)C	i
C[C@H]1CN([C@@H](C)CO)C(=O)c2cc(-c3ccccc3)cnc2O[C@H]1CN(C)Cc1ccccc1	i
COc1ccc(-c2cnc3c(c2)C(=O)N([C@H](C)CO)C[C@@H](C)[C@@H](CN(C)C(=O)Cc2ccccn2)O3)cc1	i
COc1cccc(NC(=O)CCc2nc(-c3ccc(C)cc3)no2)c1	i
COc1cccc(-c2cnc3c(c2)C(=O)N([C@H](C)CO)C[C@H](C)[C@H](CN(C)C)O3)c1	i
COc1cc(NC(=O)COc2ccc(Cl)cc2C)c(OC)cc1Cl	i

Brought forward from above: three compounds, followed by the next part.
SMILES	ID4 SMM
COc1cccc(NC(=O)CCc2nc(-c3ccc(C)cc3)no2)c1	i
COc1cccc(-c2cnc3c(c2)C(=O)N([C@H](C)CO)C[C@H](C)[C@H](CN(C)C)O3)c1	i
COc1cc(NC(=O)COc2ccc(Cl)cc2C)c(OC)cc1Cl	i
CC(=O)c1cccc(N(CC(=O)Nc2ccccc2C(F)(F)F)S(C)(=O)=O)c1	i
C[C@H](NC(=O)N(C)C[C@@H]1OCc2ccccc2-c2c(n(C)c3ccccc23)C(=O)N([C@@H](C)CO)C[C@@H]1C)c1ccccc1	i
O=c1c(O)c(-c2cc(O)c(O)c(O)c2)oc2cc(O)cc(O)c12	i
NC(=O)[C@@H]1[C@H]2C(=O)O[C@H](c3ccccc3)[C@H](c3ccccc3)N2[C@H](c2ccc(OCCO)cc2)[C@@]12C(=O)Nc1ccccc12	i
CC(C)c1ccc(NC(=O)CN(C)S(=O)(=O)c2ccc(F)cc2)cc1	i
Nc1cc(N)nc(SCC(=O)Nc2ccc(Oc3ccccc3)cc2)n1	i
O=C(Nc1ccc(I)cc1C(=O)NCCN1CCOCC1)c1cccnc1	i
Cc1cc(C)n(CC(O)COc2ccc(C(=O)c3ccc(Cl)cc3)cc2)n1 (stereo not given)	i
COc1ccc(CCNC(=O)c2c(-c3c(F)cccc3Cl)noc2C)cc1OC	i
O=C(C[C@@H]1CC[C@H](NC(=O)CC2CC2)[C@@H](CO)O1)NCc1ccc(-c2ccccc2)cc1	i
Cc1ccccc1OCC(=O)Nc1ccc([N+](=O)[O-])cc1O	i
Cc1cc(C)c(NS(=O)(=O)c2ccc(NC(=O)c3nc4nc(C)cc(C(F)F)n4n3)cc2)c(C)c1	i
Cc1cccc(C)c1NC(=O)CSc1nc2c(cc1C#N)CCC2	i
C[C@@H]1CN([C@H](C)CO)C(=O)c2cc(-c3ccc(F)cc3)cnc2O[C@@H]1CN(C)C(=O)c1ccncc1	i
CCOC(=O)NC1c2ccccc2Sc2ccc(Cl)cc21 (stereo not given)	i

A portion of the library (hit frequency here may not be typical).
